Menin MLL FP FL – menin-MLL binding inhibition, fluorescein peptide | FP activity change, % at 61.4 µM | 290,000 tested, under 10 active | Fluorescence polarization, fluorescein-MLL peptide displacement from menin; inconclusive = falling polarisation curve, or a change in total fluorescence; inactive = total fluorescence flat and polarisation flat or rising; no compound was filed as active; the % refers to the polarisation; negative = inhibition;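 note: % of control where 0% means no effect; inhibitors lower the polarisation; unlabelled MLL peptide was the positive control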
gsp agonist – agonists of gsp mutant (McCune-Albright syndrome); gsp mutant cells, cAMP HTRF, 30 min; control for the full effect not named in the record; Potency, µM (highest dose often 76.9 µM), for the others: top-dose activation (cAMP increase), actives largely listed as activators; 340,000 compounds, 0.13% hits; active = well fitted activation curve with a large enough effect; inconclusive = small, poorly fitted or top-dose-only effect, or another doubt; inactive = no such curve, though single readings can be large or run the other way; cell line not stated here;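 note: phosphodiesterase inhibitor Ro 20-1724 added with compounds to block cAMP breakdown; potency is the fitted concentration of half-maximal effect; nearly all actives have a fitted effect of over 60% in size; about a fifth of the inactives were tested at one dose only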
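Cells in DMEM/10% FBS with G418 were pretreated with compounds in DMSO plus […] (300 uM stock) for 30 min at 37C. cAMP was measured by HTRF (cAMP-d2 plus anti-cAMP antibody-K) after 30 min at room temperature.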
gsp antagonist – gsp mutant antagonism; 340,000 compounds, 0.4% hits; Potency, µM (doses to about 76.9 µM), for inactives: at the highest dose activity change, negative = inhibition, hits mostly inhibitors; gsp-mutant cells, cAMP HTRF, 30 min; control for the full effect not named in the record; active = falling curve of any shape with a large fitted effect; inconclusive = falling curve, mostly with a smaller effect; inactive = flat or rising curve; cell line not stated here;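 note: intracellular cAMP measured with PDE inhibitor Ro 20-1724 present during compound exposure; potency is the fitted concentration of half-maximal effect; % is set by controls: 0 for no effect and ±100 for the full control effect; nearly all actives have a fitted effect of over 65% in size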
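Cells in G418 medium, seeded 16-24 h, 37C; buffer exchange to DPBS + 1 mM CaCl2, 0.5 mM MgCl2, 0.05% BSA; cpds in DMSO + […] (300 uM stock), 30 min 37C; HTRF cAMP detection.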
D2 potentiator – potentiates the human D2 dopamine receptor allosterically; P14416; 360,000 compounds, 0.23% hits; DiscoveRx D2 beta-arrestin cells, luminescence, 90 min; 100% = 57 uM dopamine signal; potentiation, % (no concentration beside the values); active = potentiation of 50% or more; inconclusive = 30% to 50%; inactive = 30% or less;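 note: compound concentration not given in the record; tested on top of an EC20 dose of dopamine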
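PathHunter D2 cells, attached overnight at 37 deg C, received compound in DMSO plus dopamine at EC20 (50 nM final) for 90 min at 37 deg C. Beta-arrestin recruitment was read as luminescence after 1 h with detection reagent at ambient temperature.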
Sfp PPTase inh – inhibitors of Bacillus subtilis Sfp phosphopantetheinyl transferase | AID 1490 | Biochemical Sfp PPTase activity, qHTS | Potency, µM, for the others: max response, negative = inhibition, hits mostly inhibitors | 310,000 compounds, 3.5% hits; active = well fitted inhibition curve with a large enough effect; inconclusive = small, poorly fitted or top-dose-only effect, or another doubt; inactive = no such curve, though single readings can be large or run the other way;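 note: the enzyme is Sfp with the accession as filed and its product quenches rhodamine fluorescence; potency is the fitted concentration of half-maximal effect; 0% = enzyme reaction without inhibitor and -100% = no enzyme wells; top concentration of the series not given in the record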
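Reaction rates are the 30-min fluorescence difference (ex 525, em 598 nm) in wells containing 15 nM Sfp, 5 uM rhodamine-CoA and 12.5 uM BHQ-2-YbbR at pH 7.6 with 10 mM MgCl2.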
ClpP mod – qHTS Assay for Activators of ClpP | ATP-dependent Clp protease proteolytic subunit (Bacillus subtilis (strain 168)), P80244 | purified B. subtilis ClpP, FRET peptide cleavage, 20 min | Potency, µM (top dose mostly 57.5 µM), for the others: at the highest dose activity change, negative = active | 340,000 compounds, 1.9% hits; active = well fitted falling curve with a large enough effect; inconclusive = small, poorly fitted or top-dose-only effect; inactive = no such curve, though single readings can be large or run the other way; note: potency is the fitted concentration of half-maximal effect; the source files actives as falling curves though it sought activators and does not explain the sign; nearly all actives have a fitted effect of over 65% in size; many hits overshoot -100%
Target sequence (P80244 whole entry, looked up): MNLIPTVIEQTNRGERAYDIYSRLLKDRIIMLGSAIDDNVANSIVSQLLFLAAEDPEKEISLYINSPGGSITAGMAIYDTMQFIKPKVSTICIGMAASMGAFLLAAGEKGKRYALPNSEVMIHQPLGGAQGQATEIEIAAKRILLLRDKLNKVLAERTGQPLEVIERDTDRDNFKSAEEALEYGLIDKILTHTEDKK
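Purified B. subtilis ClpP, 10 microg/mL final in Tris/HCl pH8 with KCl, BSA, glycerol and Tween-20, cleaved an Abz/nitrotyrosine-quenched decapeptide. Fluorescence (ex 320, em 430) was read at 0 and 20 min at room temperature. Delta was normalized to 5.8 microM ADEP and DMSO/no-enzyme controls.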
TRPV1 PAM – human TRPV1 potentiation; TRPV1-expressing cells, Fluo-8 calcium influx, capsaicin EC20 potentiation; host cell line not named in the record; control for the full effect not named in the record; potentiation, % at 8.33 µM; 320,000 compounds, 0.02% hits; AID 540277; active means potentiation above 80%; inconclusive means 30% to 80%; inactive means below 30%; note: 0% is about no effect
Target sequence (Q8NER1 whole entry, looked up): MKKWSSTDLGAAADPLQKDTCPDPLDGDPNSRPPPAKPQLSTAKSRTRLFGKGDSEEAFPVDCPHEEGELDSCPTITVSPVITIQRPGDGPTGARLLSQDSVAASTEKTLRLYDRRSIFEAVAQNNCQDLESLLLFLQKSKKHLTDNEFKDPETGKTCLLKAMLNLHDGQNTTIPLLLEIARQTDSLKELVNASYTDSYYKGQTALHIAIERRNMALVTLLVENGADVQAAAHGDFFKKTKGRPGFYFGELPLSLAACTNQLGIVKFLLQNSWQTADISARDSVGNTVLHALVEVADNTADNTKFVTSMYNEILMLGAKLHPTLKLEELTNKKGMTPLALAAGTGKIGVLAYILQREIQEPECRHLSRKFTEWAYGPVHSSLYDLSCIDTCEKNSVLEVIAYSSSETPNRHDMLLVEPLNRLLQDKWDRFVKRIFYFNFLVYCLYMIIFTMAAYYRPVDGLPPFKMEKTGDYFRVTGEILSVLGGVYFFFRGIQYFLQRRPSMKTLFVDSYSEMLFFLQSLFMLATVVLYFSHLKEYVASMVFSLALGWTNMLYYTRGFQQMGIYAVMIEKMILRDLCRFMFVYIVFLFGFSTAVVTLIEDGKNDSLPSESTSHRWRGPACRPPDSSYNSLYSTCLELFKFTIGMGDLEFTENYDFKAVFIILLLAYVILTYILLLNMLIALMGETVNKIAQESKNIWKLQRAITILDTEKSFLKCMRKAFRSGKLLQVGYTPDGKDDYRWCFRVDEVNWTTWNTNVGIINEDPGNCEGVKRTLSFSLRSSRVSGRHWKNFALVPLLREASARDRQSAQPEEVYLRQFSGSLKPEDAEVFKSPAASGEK
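Cells expressing TRPV1 were dye-loaded with Fluo-8 and read kinetically: 10 s baseline, 3 min after compound (agonist portion), then 2 min after EC20 capsaicin (allosteric enhancer portion). Calcium-bound dye fluorescence at 480/520 nm.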
* marks the source's active call; other numbers are inactive results; ? = inconclusive; . = not tested or not shown; & = joins results of further samples; [ ] = dose if it differs, or a comment.

SMILES | Menin MLL FP FL | gsp agonist | gsp antagonist | D2 potentiator | Sfp PPTase inh | ClpP mod | TRPV1 PAM
CC(=O)N(C)C1=C(O)c2ccccc2C(=O)C1=O | -1.4 | -94.2%[inhibitor] | -1.1% | -14.7 | 2.1% | -1.4% | 6.2
CCC(C)c1ccccc1NC(=O)c1cc(C)no1 (stereo unspecified) | 2.4 | 25.0% | 5.9% | -7.0 | 9.3% | . | 9.4
O=C1Nc2ccccc2N(O)N1c1cc(-c2ccccc2Cl)no1 | 0.0 | -30.7%[inhibitor] | -33.6% | 8.6 | -9.4% | -0.5% | 7.7
CC(C)c1ccc(NC(=S)NCCc2c[nH]c3ccccc23)cc1 | 2.4 | 6.1% | -6.9% | -3.8 | 13.9% | -2.0% | -9.7
CCCOc1ccc(/C=N/Nc2cc(N3CCOCC3)ncn2)c(O)c1 | -2.3 | 8.1% | -4.6% | -67.8 | 8.1% | -1.1% | -11.4
O=C(c1cc2ccccc2o1)N1CCN(c2cccc(C(F)(F)F)c2)CC1 | . | 6.5%[15.4 µM] | 6.6% | 8.4 | 0.4% | 6.2% | 0.1
Cc1csc2nc(O)c(C(=O)NCc3ccc4c(c3)OCO4)c(=O)n12 | . | -39.6%[15.4 µM] | -8.0% | -4.2 | . | . | -20.4
O=C(Nc1cccc2nsnc12)c1cccnc1 | 9.3 | 0.2% | 4.9% | -4.4 | -4.9% | -3.8% | -29.4
COc1ccc(NC(=O)c2cccc(NC(=O)c3ccccc3)c2)c(OC)c1 | -4.6 | 9.6%[15.4 µM] | -15.7% | -5.0 | 3.2% | 0.1% | -21.4
COc1ccccc1CNC(=O)COc1cc2c(c3oc(=O)cc(C)c13)CCC(C)(C)O2 | 0.1 | . | -13.1% | 14.0 | 11.4% | 5.0% | 17.0
CN(C(=O)CC1C(=O)NCCN1Cc1ccc(F)c(F)c1)C1CCCCC1 (stereo unspecified) | . | -46.1%[inhibitor] | 6.2% | -12.4 | 3.0% | ? | -17.7
CCn1cc(/C=N\NC(=O)c2ccc3c(c2)c(C)c(C)n3Cc2ccccc2)c(C)n1 | 1.1 | 11.7%[15.4 µM] | -11.6% | -7.8 | -5.6% | 0.7% | 5.1
COc1ccc(NC(=O)N2CCN(C(=O)C3CCCO3)CC2)cc1 (stereo unspecified) | 3.1 | 5.1%[15.4 µM] | 11.6% | -2.6 | 14.2% | 1.1% | -4.8
CCSc1ncc(Cl)c(C(=O)Nc2ccccc2C)n1 | -1.2 | -3.8% | -30.9% | -13.2 | -0.8% | -4.6% | ?
Cc1ccc(NC2c3ncccc3C(=O)N2Cc2ccc(F)cc2)cc1 (stereo unspecified) | -0.4 | 11.9% | -5.4% | -5.8 | 10.1% | -0.7% | -10.1
O=c1c2oc3ccccc3c2[nH]c(=S)n1-c1ccccc1 | 0.3 | 3.55µM* | 11.8% | -2.1 | 50.1µM* | -2.3% | 16.4
O=c1[nH]c(=O)n([C@H]2C[C@H](O)[C@@H](CO)O2)cc1C(F)(F)F | -8.7 | . | -2.7% | -5.0 | 22.5% | 1.9% | 3.1
S=C1Nc2ccccc2CS1 | . | 2.6% | . | -21.9 | . | -1.6% | .
NC(=S)NNC(=O)c1cccc(Br)c1 | 4.1 | . | . | . | 16.5% | . | -10.3
Cc1cccc(OCc2n[nH]c(=S)n2C2CCCCC2)c1 | 0.0 | -26.6% | -3.3% | -9.2 | 6.5% | -0.8% | 6.5
CCCC(NC(=O)c1ccccc1)c1nc2ccccc2n1Cc1ccc(C(=O)OC)o1 (stereo unspecified) | 3.1 | -3.0% | 14.8% | -14.6 | -3.7% | -4.9% | -18.8
CCOC(=O)C1(CCc2ccccc2)CCN(C(=O)Cc2nonc2C)CC1 | 3.4 | -4.3%[15.4 µM] | -26.9% | -6.3 | 6.5% | 0.2% | -10.0
CN(CC(=O)Nn1cnnc1)S(=O)(=O)c1cc(Cl)ccc1Cl | 2.4 | -0.2% | 11.8% | -1.0 | 10.1% | -1.2% | .
CCn1cc(C(=O)NCCCN2CCCC(C)C2)c(=O)c2cc(S(=O)(=O)N3CCOCC3)ccc21 (stereo unspecified) | 5.6 | 4.2% | 10.5% | -18.6 | 21.4% | . | 6.2
CCCNC(=S)Nc1ccc(S(N)(=O)=O)cc1 | 0.8 | 1.1%[15.4 µM] | -0.3% | -5.2 | 6.5% | . | 7.5
CCCCCCN(C(=O)CCCCCN1C(=O)NC(c2ccc(-c3ccccc3)cc2)C(C(=O)OCc2ccccc2)=C1C)C(C(=O)NCCCC)c1ccccn1 (stereo unspecified) | -1.3&6.7 | . | . | . | 5.9%&16.6% | . | -30.8
O=C(c1ccc(-n2cncn2)c([N+](=O)[O-])c1)N1CCN(S(=O)(=O)c2ccccc2F)CC1 | . | -2.0%[15.4 µM] | 4.0% | 26.0 | . | 14.1µM* | -3.0
Cc1ccc2nc(NC(=O)c3ccccn3)sc2c1 | -2.9 | -12.7%[15.4 µM] | 14.5% | -9.1 | 8.7% | . | -2.8
O=C(NC1CCCCC1)C1CCN(S(=O)(=O)c2cccc3cccnc23)CC1 | 1.9 | 15.9% | 7.5% | -2.7 | 1.4% | -1.2% | .
CCOC(=O)c1c(SCCN2CCCC2)n(-c2ccccc2)c(=S)n(-c2ccccc2)c1=O | . | 0.8% | -11.8% | -19.8 | . | -1.8% | .
COc1ccc(/C=C/C(=O)NCCn2c(C)cc3ccccc32)cc1OC | 1.9 | 5.1% | -25.2% | 0.1 | 5.1% | -4.5% | -12.6
CC(=O)c1cccc(NC(=O)CSc2ncc(C(=O)Nc3ccccc3)c(=O)n2C)c1 | . | -6.3% | -3.5% | 6.3 | . | -2.5% | -14.5
CN1CCN(S(=O)(=O)c2cnccc2N2CCN(c3cccc(Cl)c3)CC2)CC1 | 3.6 | -17.5% | 13.5% | -2.8 | -10.1% | 1.1% | 0.6
CCCC(=O)Nc1ccc2c(c1)nc(CCN1CCCCC1)n2C | -0.8 | -4.9% | 10.8% | -3.3 | -1.8% | . | 1.2
Cn1cc(S(=O)(=O)N2CCOCC2)cc1C(=O)Nc1cccc(Cl)c1 | -4.3 | -30.5%[inhibitor] | -1.1% | -3.4 | 2.4% | -3.0% | -9.6
CC(=O)N1c2ccc(S(=O)(=O)N3CCC(C(=O)NCc4ccccc4)CC3)cc2CC1C (stereo unspecified) | 2.1 | 38.4% | -2.0% | -10.3 | 12.4% | 0.2% | -22.4
COc1ccc(-n2c(C)cc(C(=O)CN3CCCCC3)c2C)cc1 | -1.2 | 19.8% | 3.9% | -10.2 | 6.6% | 3.1% | -2.8
Cc1ccc2nc(NC(=O)COC(=O)c3ccco3)sc2c1 | 8.4 | -19.5% | -4.5% | -13.4 | 4.1% | -1.0% | 8.2
CCOC(=O)C1CCN(C(=O)CCS(=O)(=O)c2ccc3c(c2)n(C)c(=O)c(=O)n3C)CC1 | -2.4 | 22.0% | -2.7% | 0.7 | 11.8% | -24.3% | -0.2
COc1ccc(C(=O)Nc2nc3nccc(-c4ccccc4)n3n2)cc1 | 0.5 | 6.5% | -0.5% | 2.1 | 18.7% | ? | 5.8
CCOC(=O)N1CCC(=C(C#N)C(=O)Nc2cc(OC)ccc2OC)CC1 | 7.9 | -26.3% | -17.0% | -3.2 | 0.4% | -1.7% | 6.4
CCC(=O)c1cc2c(cc1NC(=O)c1ccccc1)OCCO2 | -2.0 | -1.2% | -15.8% | 1.9 | 6.5% | -0.4% | 2.4
CCN(CC)S(=O)(=O)c1ccc(NC(=O)c2ccccn2)cc1 | -0.4 | -42.4%[inhibitor] | 5.8% | 1.0 | 8.4% | 0.3% | -18.9
CC(C)(C)NC(=O)C1Cc2ccccc2CN1S(=O)(=O)c1ccc(F)cc1 (stereo unspecified) | -1.8 | -11.4%[15.4 µM] | -2.1% | 0.5 | -3.0% | . | -17.9
CCC(=O)c1ccc(OCC(=O)NC2CCCC2)cc1 | . | -2.8% | 4.4% | -13.4 | . | 2.1% | -25.9
CCN(CC)C(=O)COc1ccc(C=O)cc1OC | 3.1 | -2.6%[15.4 µM] | 5.3% | -4.1 | 21.1% | -8.3% | -8.5
CC1CN(C(=O)c2cnn3c(C(F)F)cc(-c4ccccc4)nc23)CC(C)O1 (stereo unspecified) | 5.1 | ? | 9.4% | -9.4 | 11.2% | -15.2% | -10.9
CC(C)CNc1nc(N)c([N+](=O)[O-])c(NCC2CCCO2)n1 (stereo unspecified) | 6.9 | -6.8% | 9.4% | -19.0 | 3.3% | 1.2% | 20.5
O=C(Nc1ccc2c(c1)nc1n2CCOC1)C1CCCCC1 | -0.8 | -3.3% | -0.3% | 18.9 | 13.7% | -3.7% | 5.7
CCOC(=O)N1CCN(C(=O)CCC(=O)c2ccc(OCC)cc2)CC1 | 2.2 | -8.0% | -2.8% | 8.8 | 1.2% | . | -20.2
CCOc1ccc(N(CC(=O)NC2CCCC2)C(=O)CCCC(=O)Nc2ccccn2)cc1 | 0.1 | 1.2% | 0.9% | -9.8 | 6.3% | 1.0% | 12.8
C[C@@H]1CN([C@H](C)CO)S(=O)(=O)c2ccc(-c3cccc(C(=O)N(C)C)c3)cc2O[C@H]1CN(C)C(=O)Nc1ccc(F)cc1 | . | -114.1%[inhibitor] | . | -1.6 | . | 2.0% | .
CC1(NC(=O)COc2ccccc2-c2ccccc2)CCS(=O)(=O)C1 (stereo unspecified) | -0.1 | -20.8% | -20.6% | -4.6 | 0.0% | -3.1% | -7.6
O=C(NCc1cccc(C(F)(F)F)c1)N1CCN(C(=O)c2ccccc2)CC1 | . | -34.6%[inhibitor] | 14.3% | -12.3 | . | 1.7% | .
CCC1CCCCN1S(=O)(=O)c1ccc2c(c1)CCN2C(C)=O (stereo unspecified) | 2.4 | 1.7% | 25.9% | 2.8 | 6.0% | 0.8% | -7.2
Cc1cc(/C=N/NC(N)=O)c(C)n1C1CCCCC1 | -0.8 | -73.5%[inhibitor] | 13.5% | -8.9 | 9.2% | -1.9% | -2.3

Source: PubChem (National Center for Advancing Translational Sciences (NCATS))
